# TsaE inh: qHTS Assay for Inhibitors of YjeE; purified YjeE, fluorescence polarisation of a bound ADP probe; Potency, µM; 0.05% of 71,000 active; active = well fitted falling curve; inconclusive = weaker or top-dose-only fall, or a rising curve; inactive = flat or poorly fitted curve;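 further: top concentration of the series not given in the record; excess ADP was the control for the full effect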
#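 Purified YjeE (10 uM) with BODIPY Texas Red-labeled ADP probe (2 uM); compounds pin-transferred, 15 min at room temperature. Binding inhibition read as decreased fluorescence polarization; ADP titration as control.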
# Bst PK mod: Pyruvate Kinase | Potency, µM | partly purified Bacillus stearothermophilus pyruvate kinase, luminescence ATP production; ribose 5-phosphate activator present at AC10 | AID 361, 2006 | 1.2% of 51,000 active; in the data active means potency below about 11 µM; inconclusive means mostly about 12 µM to 25 µM; inactive means weaker than that;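 the screen sought inhibitors and activators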;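 further: potency means the concentration at half of the fitted maximal effect; scaled between full activation by ribose 5 phosphate and full inhibition by luteolin; about four in five hits inhibit and the cells do not say which; series up to 57 µM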
# Starred values were filed as active, the others as inactive; i = inactive; u = inconclusive; x = not tested or not shown. The list is partial. The share of hits here may be higher or lower than overall.
mol | TsaE inh | Bst PK mod
CC1(C)O[C@@H]2C[C@H]3[C@H]4C[C@H](F)C5=CC(=O)CC[C@]5(C)[C@@H]4[C@H](O)C[C@]3(C)[C@]2(C(=O)CO)O1 | i | x
Cn1c(=O)c2c(n(C)c1=O)=NC1(CCCCC1)N=2 | i | x
Cc1ccccc1N1C(=O)C(Cl)=C(N2CCN(c3ccccc3)CC2)C1=O | i | x
CCc1ccc(OC)c(S(=O)(=O)NCCOc2ccccc2)c1 | i | >57
O=C(CC1CCCCC1)OCn1nnc2ccccc2c1=O | i | >57
Cc1[nH]c2ccccc2c1NC(=O)CN1CCN(Cc2ccc3c(c2)OCO3)CC1 | i | >57
CCOC(=O)c1sc(N)nc1-c1ccccc1 | i | x
COc1ccc(Cl)cc1-n1c(=S)sc2c(=O)[nH]c(SCC(=O)NCC3CCCO3)nc21 (stereo not drawn) | i | >57

# The last 5 compounds of the section above open the next one:
mol | TsaE inh | Bst PK mod
CCc1ccc(OC)c(S(=O)(=O)NCCOc2ccccc2)c1 | i | >57
O=C(CC1CCCCC1)OCn1nnc2ccccc2c1=O | i | >57
Cc1[nH]c2ccccc2c1NC(=O)CN1CCN(Cc2ccc3c(c2)OCO3)CC1 | i | >57
CCOC(=O)c1sc(N)nc1-c1ccccc1 | i | x
COc1ccc(Cl)cc1-n1c(=S)sc2c(=O)[nH]c(SCC(=O)NCC3CCCO3)nc21 (stereo not drawn) | i | >57
N#Cc1nc(-c2ccc(Cl)cc2)oc1NCCc1ccccn1 | i | >57
Cc1cc(C)c2[nH]c(=O)c(C(c3nnnn3Cc3ccc4c(c3)OCO4)N3CCC(C)CC3)cc2c1 (stereo not drawn) | i | >57
COc1ccc(C[C@H](N)C(=O)N[C@@H]2[C@H](O)[C@H](n3cnc4c(N(C)C)ncnc43)O[C@@H]2CO)cc1 | i | x
CC(C(=O)N(C)C)N(C#N)c1nc(N(C)C)nc(N(C)C)n1 (stereo not drawn) | x | >26
Cc1nc(NC(=O)CCC(=O)O)sc1C(=O)N(C)C | i | >57
CN(C)S(=O)(=O)c1ccc2c(c1)c(=O)c(C(=O)N1CCN(c3ccccn3)CC1)cn2C | i | x
O=C(Nc1c(C(=O)N2CCCC2)cnn1-c1ccccc1)c1cccc(F)c1 | i | x
COc1ccc(S(=O)(=O)Cc2ccc(C(=O)NCc3ccc(F)cc3)o2)cc1 | i | x
CC(C)(C)C1CCc2nc(NC(=O)Cc3cn4ccsc4n3)sc2C1 (stereo not drawn) | i | >57
COc1ccc(NC(=O)C(c2ccc(OC)cc2)N(C)C(=O)c2cnccn2)cc1 (stereo not drawn) | i | >57
Cc1ccc2cc3c(NC(=O)c4cccnc4)nn(C)c3nc2c1 | i | >57
CCCc1cc(=O)[nH]c(SCC(=O)c2ccc(S(=O)(=O)N3CCCC3)cc2)n1 | i | >57
O=C(NCc1ccccn1)c1cn(Cc2ccccc2)nn1 | i | >57
C=C(C)c1ccc(C(C)(C)NC(=O)N2CCN(C)CC2)cc1 | i | >57
Nc1nnc(SCC(=O)N2CCN(c3ccccc3)CC2)s1 | i | >57
O=C(c1cccs1)N(CCO)Cc1cc2cc3c(cc2[nH]c1=O)OCCO3 | i | >57
COc1ccc(NS(=O)(=O)c2ccc(NS(C)(=O)=O)cc2)cc1 | i | x
COc1ccccc1NC(=O)CCn1c(=O)sc2ccccc21 | i | >57
CN(C)c1oc(-c2ccccc2Cl)nc1C#N | i | >57
O=C(Nc1cccc2ncccc12)c1cc2ccccc2o1 | i | >57
NC(CO)C(=O)NNCc1ccc(O)c(O)c1O (stereo not drawn) | x | >11
CCCCS(=O)(=O)Nc1ccc(Cc2ccncc2)cc1 | i | >57
CC(=O)N1CCc2cc(S(=O)(=O)NCCCOC(C)C)ccc21 | i | >57
O=C(c1nnc(-c2ccncc2)o1)c1ccccc1Cl | i | >57
CCCCn1c(N)c(N(CCC(C)C)C(=O)CSc2nnc(C)s2)c(=O)[nH]c1=O | i | >57
COc1ccc(CC(NC(C)=O)C(=O)NC2CCN(C(=O)NCc3ccccc3)CC2)cc1OC (stereo not drawn) | i | >57
CCOc1ccccc1C(=O)NCC(=O)OCC(=O)c1ccc2c(c1)OCCO2 | i | >57
c1cn(-c2ncnc3ccc(-c4ccoc4)cc23)cn1 | i | x
COc1cc(C(=O)N(Cc2ccccn2)CC2CCCO2)cc(OC)c1OC (stereo not drawn) | i | >57
CCOC(=O)C1CCCN(S(=O)(=O)c2cccc3cccnc23)C1 (stereo not drawn) | i | u
COC(=O)c1cc(Br)c(=O)n(-c2ccccn2)c1 | i | >57
C=CCNC(=O)C1CCCN(S(C)(=O)=O)C1 (stereo not drawn) | i | >57
CCOc1ccccc1C(=O)N(CCC(=O)OC)c1ccccn1 | i | >57
COc1ccc(OC)c(S(=O)(=O)N2CCN(c3c(C)cccc3C)CC2)c1 | i | x
CC(=O)OC1c2ccccc2C(=O)N1Cc1ccccc1Cl (stereo not drawn) | i | x
CCOCC(=O)Nc1cccc(Br)c1 | i | >57
CN1C(=O)CC(N2CCN(CCN=CC3=C(O)CC(C)(C)CC3=O)CC2)C1=O (stereo not drawn) | i | >57
COCCCNC(=O)c1cc(C)nc2ccc(F)cc12 | i | >11
O=S(=O)(c1cccc(S(=O)(=O)N2CCC(n3nnc4ccccc43)CC2)c1)N1CCCCC1 | i | >57
COc1ccccc1C(=O)Nc1ccc2c(c1)nc(CCNC(C)=O)n2C | i | x
CC=O | i | x
Cc1cc(NC(=O)CCC(=O)N(c2ccc(F)cc2)C(C(=O)NC2CCCC2)c2ccncc2)no1 (stereo not drawn) | i | >57
O=c1c2ccccc2nc2n1CCCCN2 | i | >57
Cn1cccc1Cc1nnc(SCC(=O)NC2CCCCC2)n1-c1ccc(F)cc1 | i | x
CC1CCCN(C(=O)CN2C(=O)c3ccccc3C2=O)C1 (stereo not drawn) | i | x
CCC(=O)N1CCc2cc(S(=O)(=O)NCCCN3CCN(Cc4ccccc4)CC3)ccc21 | i | >57
COc1ccccc1CNc1ncnc2ccc(-c3cccc(NS(C)(=O)=O)c3)cc12 | i | x
Cc1cccc(N2CCN(C(=O)c3ccc(CS(=O)(=O)c4ccccc4C)o3)CC2C)c1 (stereo not drawn) | i | >57
COCCn1c(=O)c(-c2ccc(Cl)cc2)nc2cnc(OC)nc21 | i | x
Cc1cccc(OCC2=NS(=O)(=O)c3ccccc3N2)c1 | i | >57
CC(C)c1nnc(NC(=O)CC(=O)Nc2ccccc2C(=O)O)s1 | i | x
N#CC1=C(SCc2ccccc2)NC(=O)CC1c1ccc(O)cc1 (stereo not drawn) | i | x
CCCOCC1CC2(SC(=Nc3ccc(C)cc3)NC2=O)C(=O)O1 (stereo not drawn) | i | >57
CCOC(=O)CSc1nnc(CSc2nc(N)c3c(C)c(C)sc3n2)n1-c1ccccc1 | i | x
O=C(O)CCc1ccc(-c2ccc(Cl)cc2)n1CC(=O)O | i | x
COc1cc(C(=O)Nc2ccc3c(c2)OCCO3)ccc1OC(F)F | i | u

# Next section:
mol | TsaE inh | Bst PK mod
COc1nc(NCC(C)C)nc(Oc2ccc(OCc3ccccc3)nn2)n1 | i | >57
Cc1cc(C)n(-c2ccc(C(=O)C(C#N)c3nc4ccccc4n3C)cc2)n1 (stereo not drawn) | i | >57
COc1ccc(S(=O)(=O)N2CCCC2)c(C)c1C | i | >57
O=C(NCC1CCCO1)c1ccc2c(c1)N(Cc1ccccc1)C(=O)CS2=O (stereo not drawn) | i | x
CC(=O)c1ccc(CCCC(=O)O)cc1 | i | x
C=CCn1cnc2c(c1=O)c1nc3ccccc3nc1n2-c1ccc(Cl)cc1 | x | >26
CN(C(=O)c1cc2n(n1)C(C(F)(F)F)CC(c1ccco1)N2)c1ccccc1 (stereo not drawn) | i | >57
CC1(C)CC(=O)C=C(Nc2ccc(F)cc2F)C1 | i | x
C=CCn1c(N)c(C(=O)NCCC2=CCCCC2)sc1=S | i | >57
COCCNC(=O)c1cc(-c2cccc(OC)c2)on1 | i | u
CCn1c(SCC(=O)Nc2nccs2)nnc1-c1cc2cccc(OC)c2o1 | i | >57
CC1=CC(C)(C)N(C(=O)c2ccc(F)cc2)c2cc3c(cc21)OCO3 | i | >57
Cc1cc(-c2nsc(=O)o2)c(S(C)(=O)=O)s1 | i | >57
CCN(CC)C(=O)c1n[nH]c(=O)c2ccccc12 | i | >57
CCOC(=O)N1CCN(C(=O)CNS(=O)(=O)c2cccs2)CC1 | i | >57
CCCn1c(NCc2cccs2)nc2ccccc21 | i | x
CCOc1ccc(N2CCCCn3c2nc2c3c(=O)[nH]c(=O)n2C)cc1 | i | >57
COc1cccc(CNC(=O)Cn2cc3c(n2)CCCC3)c1 | i | x
O=C(Nc1ccc(-c2nnc(-c3ccccc3)o2)cc1)c1ccc(Br)o1 | i | >57
COc1ccc(N(CC(=O)NC(C)(C)C)S(=O)(=O)c2ccccc2)cc1OC | i | >57
CCc1nnc(NC(=O)c2ccc(COc3ccccc3)o2)s1 | i | >57
COC(=O)c1sccc1NC(=O)c1csc2c1CCCC2 | i | >57
C=CCn1c(N)c(C(=O)NCc2ccco2)sc1=S | i | >57
Cc1ccc2c(c1)C1(C(=O)N2C)N2CC3(C)CN1CC(C)(C2)C3=O (stereo not drawn) | i | x
NC[C@@]12CCCC1C1CCC2C1 (stereo partly drawn) | i | >57
COc1ccc(CNCC(O)COCc2cccs2)cc1 (stereo not drawn) | i | >57
O=C(NC1CC1)c1ccc(CSCc2cccc(F)c2)o1 | i | x
CCOC(=O)Cn1c(=O)oc2cc(S(=O)(=O)N3CCc4ccccc43)ccc21 | i | x
O=C(c1ccco1)N1CCN(CCOCCOc2cccc3ccccc23)CC1 | x | >26
CN1[C@H]2CC(OC(=O)[C@@H](CO)c3ccccc3)C[C@H]1[C@H]1O[C@H]12 (stereo partly drawn) | i | x
Nc1nncn1C(=O)c1cc(Br)ccc1Cl | i | >57
CC(C)C(=O)Nc1cc2c(cc1C(=O)c1ccccc1)OCCO2 | i | >57

# Some of the entries so far, field by field.
> CCOc1ccc(N2CCCCn3c2nc2c3c(=O)[nH]c(=O)n2C)cc1
  TsaE inh: i | Bst PK mod: >57
> COc1cccc(CNC(=O)Cn2cc3c(n2)CCCC3)c1
  TsaE inh: i | Bst PK mod: x
> O=C(Nc1ccc(-c2nnc(-c3ccccc3)o2)cc1)c1ccc(Br)o1
  TsaE inh: i | Bst PK mod: >57
> COc1ccc(N(CC(=O)NC(C)(C)C)S(=O)(=O)c2ccccc2)cc1OC
  TsaE inh: i | Bst PK mod: >57

# Next section.
mol | TsaE inh | Bst PK mod
CN1CCN(c2ncc3nc(-c4ccc(Cl)cc4)c(=O)n(C)c3n2)CC1 | i | x
Cc1cc(C)n(CC(=O)O)n1 | i | >57
Cc1ccc(Cn2ncc3c(N4CCOCC4)ncnc32)cc1 | x | >26
CCn1c(SCC(=O)Nc2ccc(S(=O)(=O)Nc3ccccn3)cc2)nnc1-c1ccncc1 | i | >57
Cc1onc(-c2ccccc2Cl)c1C(=O)Nc1c(C)n(C)n(-c2ccccc2)c1=O | i | x
CC(=O)NCCNc1nc(-c2cccc(C#N)c2)nc2ccccc12 | i | x
CCCNS(=O)(=O)c1ccc(CCC(=O)NCc2ccco2)cc1 | i | >57
O=C(Nc1ccccc1C(=O)N1CCOCC1)c1cccc(S(=O)(=O)N2CCCC2)c1 | i | >57
Nc1nc2c(nc(Br)n2[C@@H]2O[C@H]3COP(=O)(O)O[C@H]3[C@@H]2O)c(=O)[nH]1 | i | x
COC1Cc2ccccc2N(C(=O)N2CCN(CCO)CC2)c2ccccc21 (stereo not drawn) | i | >57
O=C(CN1C(=O)C2C3C=CC(C3)C2C1=O)Nc1nc(SCc2ccc(Cl)cc2)n[nH]1 (stereo not drawn) | i | >57
Cc1nc(CCNC(=O)c2ccccc2)cs1 | i | >57
COc1ccc(-c2ccnc(SCC(=O)N3CCOCC3)n2)cc1 | i | x
O=C(CN(C(=O)c1ccc2c(c1)OCCO2)c1ccccc1)NCC1CCCO1 (stereo not drawn) | i | >57
O=C(CN1CCN(c2ccccn2)CC1)Nc1ccc(OCc2ccccc2)cc1 | i | >57
CC(=O)c1c(N2CCN(C(=O)C3CCCO3)CC2)nc(=S)n(-c2ccccc2)c1C (stereo not drawn) | i | >57
Cn1nnc2cc(C(=O)N3CCC(c4ccccc4)C3)ccc21 (stereo not drawn) | i | x
Nc1nnnn1/N=C/c1ccccn1 | x | >26
COc1cccc(OC)c1C(=O)Nc1ccc2c(c1)OCCO2 | i | x
COC(=O)C1=C(N)Oc2cc(C)n(CCCn3ccnc3)c(=O)c2C1c1ccc(Cl)cc1 (stereo not drawn) | i | >57
CCN1CCC(C(=O)NC2CCCC2)(N(Cc2cccs2)C(=O)Cn2nnc3ccccc32)CC1 | i | >57
COC(=O)c1sccc1NC(=O)c1ccc(Br)o1 | i | x
COc1ccc(-c2noc(Cc3cccs3)n2)cc1 | i | x
CC(=O)c1c(C)nc(-c2ccc(Cl)cc2)nc1NC(=O)C(C)C | i | x
Cc1ccccc1C(=O)Nc1ccc2nc3n(c(=O)c2c1)CCC3 | i | x
O=C(NC1CCCCC1)C(c1ccccc1)N1CCC2(CC1)OCCO2 (stereo not drawn) | i | >57
O=C(Nc1nccs1)c1ccc(Cl)c(S(=O)(=O)N2CCCCC2)c1 | i | x

# Screening data from PubChem BioAssay.
